LANA-H2B inh = blockers of LANA interaction with H2A/H2B – biochemical, FP readout, HTS, primary screen. Protein LANA1 (Human herpesvirus 8 type P (isolate GK18)), Q9QR71. cell-free LANA-H2A/H2B peptide, fluorescence polarization. inhibition, % (test concentration not listed). 0.6% of 320,000 active. AID 2629, 2010; in the data active = inhibition mostly above about 10%, no sharp cut-off; inactive = mostly below about 6.7%;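 note: stock transfer was 7.5 nL into about 10 µL; 0% = median of vehicle wells and 100% = median of positive control wells; one replicate is shown; the record names a cut of 25% in any replicate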
Target sequence (Q9QR71 whole entry, looked up): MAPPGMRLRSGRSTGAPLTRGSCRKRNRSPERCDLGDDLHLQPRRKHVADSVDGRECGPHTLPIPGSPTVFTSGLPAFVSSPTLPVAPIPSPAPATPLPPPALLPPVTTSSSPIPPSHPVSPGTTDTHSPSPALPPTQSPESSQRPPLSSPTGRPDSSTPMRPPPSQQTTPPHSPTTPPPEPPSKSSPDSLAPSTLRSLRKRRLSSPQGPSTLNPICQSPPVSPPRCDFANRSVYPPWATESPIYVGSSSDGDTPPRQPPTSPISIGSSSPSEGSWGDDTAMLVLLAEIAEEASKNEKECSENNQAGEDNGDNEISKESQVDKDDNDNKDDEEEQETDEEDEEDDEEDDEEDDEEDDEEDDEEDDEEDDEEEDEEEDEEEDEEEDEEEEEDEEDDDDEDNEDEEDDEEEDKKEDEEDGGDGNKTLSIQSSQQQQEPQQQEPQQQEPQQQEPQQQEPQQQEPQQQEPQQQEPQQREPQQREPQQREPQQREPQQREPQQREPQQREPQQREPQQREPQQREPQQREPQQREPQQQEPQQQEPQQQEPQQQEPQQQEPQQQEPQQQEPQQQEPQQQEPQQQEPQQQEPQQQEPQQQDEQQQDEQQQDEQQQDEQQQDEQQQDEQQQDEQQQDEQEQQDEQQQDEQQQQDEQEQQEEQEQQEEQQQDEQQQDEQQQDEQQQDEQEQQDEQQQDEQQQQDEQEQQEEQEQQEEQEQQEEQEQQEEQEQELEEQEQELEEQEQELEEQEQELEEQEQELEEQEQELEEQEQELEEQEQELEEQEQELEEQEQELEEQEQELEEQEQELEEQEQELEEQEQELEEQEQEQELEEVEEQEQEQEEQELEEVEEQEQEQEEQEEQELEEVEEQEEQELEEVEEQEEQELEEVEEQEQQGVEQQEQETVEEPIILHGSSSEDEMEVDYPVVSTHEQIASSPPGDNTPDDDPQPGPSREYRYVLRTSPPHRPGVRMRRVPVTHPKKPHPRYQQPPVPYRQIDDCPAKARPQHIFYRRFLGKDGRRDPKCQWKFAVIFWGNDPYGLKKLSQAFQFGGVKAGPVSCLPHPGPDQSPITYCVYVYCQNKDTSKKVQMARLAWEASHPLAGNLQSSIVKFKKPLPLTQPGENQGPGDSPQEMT
Beta2AR agonist = beta2AR agonists driving receptor internalization, primary screen, cell-based, FAP fluorogen, flow cytometry; AID 504454, 2011; 0.43% of 340,000 active; response, % (test concentration not listed); Beta-2 adrenergic receptor (Homo sapiens), P07550; Am2.2-beta2AR cells; reference of the scale not given here;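 active = response above a set limit, near 3 SD of response in nonfluorescent compounds, cut at about 42% in these data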;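 note: stock transfer was 100 nL into about 11 µL; a reference agonist was the positive control; negative values mostly stem from fluorescent compounds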
Ecoli rRNA inh = reduced GFP signal of wild-type E. coli, primary screen, bacterial rRNA inhibitor project, GFP/RFP fluorescence, OD600, single point; E. coli WT GFP vs humanized-ribosome RFP mutants, 24 h; active compounds read low; DMSO median 0, no signal -100; GFP signal change (wild-type ribosome), % (test concentration not listed); 1.6% of 350,000 active; AID 720706, 2013;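 active = significant combined selectivity score with lowered wild-type GFP, culture density cut under 30%, mutant RFP and density less affected; inactive = any of these conditions unmet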; note: one replicate is shown; some compounds called inactive have numbers as strong as hits
Calb FLC = C. albicans growth inhibition with fluconazole, primary screen, CaCi-2 strain, Alamar Blue fluorescence | C. albicans CaCi-2 (fluconazole-resistant clinical isolate) + fluconazole, 48 h | growth inhibition, % (test concentration not listed) | 0.57% of 300,000 active;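 active = most replicates above 75%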;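 note: all wells also contain fluconazole at 8 µg/ml as a sub-toxic cotreatment; 0% = median of DMSO wells and 100% = median of geldanamycin control wells; wells of about 8 µL received 7.5 nL stock; the first replicate is given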
Beta cell apopt = inhibitors of cytokine-induced beta cell apoptosis, primary screen, luminescence; INS-1E cytokine-induced death, ATP luminescence, 48 h; percent of positive-control rescue, neutral wells zero; protection from apoptosis, % (test concentration not listed); 0.8% of 300,000 active;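 active = all replicates at 75% or more, or half of them and the mean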;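 note: 0% = cytokine-treated negative control wells and 100% = positive control rescue; higher means more ATP so stronger rescue from cytokine killing; wells of about 40 µL received 100 nL stock; the first replicate is given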
Bfl-1 A1 inh = caspase 3/7 activation in MEF A1-2A-BIM cells, primary screen, A1 inhibitor project, cell-based, luminescence, HTS; 0.066% of 330,000 active; caspase activation, % (no concentration beside the values); Caspase-Glo 3/7 luminescence, 3 h; percent of clofoctol response, vehicle zero;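 active = over half of replicate activation scores above 10%, or exactly half above 10 with the replicate mean above 10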;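 note: wells of about 30 µL received 50 nL stock; many hits fall short of the cut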
ALR H2O2 inh = inhibitors of human ALR sulfhydryl oxidase, primary screen, biochemical, H2O2 detection, HRP-luminol luminescence, single point | inhibition, % (no concentration beside the values) | 3.8% of 290,000 active | FAD-linked sulfhydryl oxidase ALR (Homo sapiens), P55789 | purified ALR, DTT oxidation;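 active = mean and each replicate at 75% or more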;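 note: stock transfer was 7.5 nL into about 7.5 µL; 0% = neutral wells and 100% = wells with inactivated enzyme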
T cruzi inh = inhibitors of intracellular T. cruzi growth, primary screen, luminescence, NIH3T3 host cells. T. cruzi beta-gal in NIH3T3, 90 h. 1.4% of 300,000 active. inhibition, % (no concentration beside the values);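 active = mean inhibition across valid replicates above about 55%, limit read from the data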;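 note: signal also drops with host cell toxicity which is not excluded here; 0% = plate median of DMSO wells and 100% = zero luminescence signal; higher percent means less beta-gal luminescence so fewer parasites; stock transfer was 50 nL into about 50 µL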
Ecoli rRNA inh OD600 = recorded beside Ecoli rRNA inh, whose call it bears; OD600 change, %; measured here: OD600 growth;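 optical density of the mix in the first replicate; 0 = DMSO median and -100 = no signal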
Ecoli rRNA inh RFP = also measured in Ecoli rRNA inh; calls as there; RFP signal change, %; measured here: RFP humanized mutant strains;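 first replicate; 0 = DMSO median and -100 = no signal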
* marks the source's active call; other numbers are inactive results; nt = no result given. The list is partial, so the mix of outcomes need not match the whole.

The first 7 entries, to show the layout:
SMILES | LANA-H2B inh | Beta2AR agonist | Ecoli rRNA inh | Ecoli rRNA inh OD600 | Ecoli rRNA inh RFP | Calb FLC | Beta cell apopt | Bfl-1 A1 inh | ALR H2O2 inh | T cruzi inh
CCC(Sc1nc(N)c(NC(=O)c2ccc(OC)c(OC)c2)c(=O)[nH]1)C(=O)OC (centres undefined) | 3.9 | 4 | -1 | 14 | 2.4 | 23 | -2 | 0.4 | -6 | -14
O=C1CN(C(=O)/C=C/c2ccc(Cl)cc2)c2ccccc2N1 | -3.5 | -16 | -22 | -26 | 0.7 | 53 | -1 | 0.7 | -10 | 4
O=C(CNS(=O)(=O)c1c(F)cccc1F)NC1CCCc2ccccc21 (centres undefined) | 0.3 | -1 | -2 | -7 | 4.6 | nt | -2 | 0.9 | -2 | nt
COc1cccc(NC(=O)C2CCCC2)c1 | 2.5 | 2 | 6 | 7 | -10 | 9 | -1 | 0.1 | -5 | 2
CN(CC(=O)NC1CCCCCCC1)S(=O)(=O)c1cnc[nH]1 | -3.0 | 3 | 9 | 1 | -9.7 | 2 | -3 | 0.8 | -22 | 0
CCCCC(c1nnnn1Cc1ccco1)N1CCN(c2nc3ccccc3s2)CC1 (centres undefined) | -2.2 | -7 | nt | nt | nt | 11 | 9 | -0.6 | -3 | 49
FC(F)(F)c1ccc(CSc2ccccn2)cc1 | -2.0 | 12 | nt | nt | nt | 0 | -9 | -1.4 | -5 | -17

Results, from the start:
SMILES | LANA-H2B inh | Beta2AR agonist | Ecoli rRNA inh | Ecoli rRNA inh OD600 | Ecoli rRNA inh RFP | Calb FLC | Beta cell apopt | Bfl-1 A1 inh | ALR H2O2 inh | T cruzi inh
CCC(Sc1nc(N)c(NC(=O)c2ccc(OC)c(OC)c2)c(=O)[nH]1)C(=O)OC (centres undefined) | 3.9 | 4 | -1 | 14 | 2.4 | 23 | -2 | 0.4 | -6 | -14
O=C1CN(C(=O)/C=C/c2ccc(Cl)cc2)c2ccccc2N1 | -3.5 | -16 | -22 | -26 | 0.7 | 53 | -1 | 0.7 | -10 | 4
O=C(CNS(=O)(=O)c1c(F)cccc1F)NC1CCCc2ccccc21 (centres undefined) | 0.3 | -1 | -2 | -7 | 4.6 | nt | -2 | 0.9 | -2 | nt
COc1cccc(NC(=O)C2CCCC2)c1 | 2.5 | 2 | 6 | 7 | -10 | 9 | -1 | 0.1 | -5 | 2
CN(CC(=O)NC1CCCCCCC1)S(=O)(=O)c1cnc[nH]1 | -3.0 | 3 | 9 | 1 | -9.7 | 2 | -3 | 0.8 | -22 | 0
CCCCC(c1nnnn1Cc1ccco1)N1CCN(c2nc3ccccc3s2)CC1 (centres undefined) | -2.2 | -7 | nt | nt | nt | 11 | 9 | -0.6 | -3 | 49
FC(F)(F)c1ccc(CSc2ccccn2)cc1 | -2.0 | 12 | nt | nt | nt | 0 | -9 | -1.4 | -5 | -17
Cc1onc(C(N)=O)c1C(=O)Nc1ncc(C(F)(F)F)cc1Cl | 10 | -12 | 11 | 11 | 1.4 | 1 | -9 | -1.9 | -4 | -9
O=C(NCc1cccc(Cl)c1)c1ccc(N2CC3CC(C2)c2cccc(=O)n2C3)c(NC(=O)c2cccnc2)c1 (centres undefined) | -2.5 | 5 | -6 | -3 | -0.3 | -5 | 1 | 1.0 | 34 | -3
O=C(c1ccc(F)cc1)n1c(=S)nc2ccccn21 | -2.3 | -13 | 3 | 11 | -0.6 | -1 | 7 | -6.4 | -4 | -22
CN1C(=O)N(S(=O)(=O)c2ccc(F)c(F)c2F)C(=O)C1(C)C | 3.2 | 1 | nt | nt | nt | 5 | -6 | 0.8 | 0 | -5
Cc1ccc(OCC(=O)N(C)CC(=O)Nc2ccc(F)cc2)c([N+](=O)[O-])n1 | -2.3 | -8 | 9 | 1 | 2.3 | 4 | -6 | 0.1 | -6 | -15
Cc1ccc(C(C(=O)NC2CCCC2)N(C(=O)c2csnn2)C2CC2)cc1 (centres undefined) | -1.3 | 9 | nt | nt | nt | -1 | 3 | -0.1 | -6 | -10
Cc1ccccc1N1CC(=O)Nc2c(oc3nc(-c4ccccc4)cc(C)c23)C1=O | -2.4 | -10 | 14 | 2 | 1.7 | -4 | -6 | -0.4 | -9 | 10
CCN1CCN(S(=O)(=O)c2ccc(Cl)c(C(=O)Nc3ccccc3N3CCOCC3)c2)CC1 | -2.3 | -2 | 0 | 1 | 0.9 | 1 | nt | 0.1 | nt | -13
NS(=O)(=O)c1ccc(NC(=S)NCc2ccc(F)cc2)cc1 | -0.4 | -9 | -1 | 1 | -2.1 | -14 | -1 | 0.8 | 0 | 5
Cc1ccc(N(C(=O)c2ccc(S(=O)(=O)N3CCCC3)cc2)C2C=CS(=O)(=O)C2)cc1 (centres undefined) | 3.7 | 2 | 5 | 3 | -0.6 | -3 | 8 | 0.4 | -8 | -14
COc1ccc(C(=O)Nc2nc3ccccc3[nH]2)cc1S(=O)(=O)N1CCCC1 | -0.5 | -11 | nt | nt | nt | 1 | -5 | -0.4 | 0 | 12
CNC(=O)c1cc(-c2ccc(Cl)cc2)n(-c2ccccc2)n1 | -3.5 | -3 | -8 | -22 | 1.5 | 10 | -1 | -0.3 | -10 | 5
CCCc1c2c(cc3c(=O)cc(C(=O)OCC)oc13)CCCC2 | -2.9 | 5 | -4 | 7 | -0.9 | -9 | -5 | -1.1 | 25 | -1
COc1cc(S(=O)(=O)N2CCn3cccc3C2C)ccc1NC(C)=O (centres undefined) | 3.2 | -8 | 9 | 1 | 3.8 | nt | 1 | 1.7 | 35 | nt
CN(C)CCCN(C(=O)c1ccco1)c1nc2ccc(Br)cc2s1 | -1.0 | 18 | -3 | -3 | 0.3 | 5 | -17 | -0.1 | -29 | 16
Cc1ccccc1OCC(=O)Nc1ccc(NC(=O)c2ccco2)cc1 | -0.2 | -34 | 4 | 4 | -2.7 | -6 | -1 | 0.9 | -15 | -23
Cc1cc(=O)[nH]c(CN2CCOCC2)n1 | 1.0 | -3 | 8 | 10 | 8.5 | -9 | -4 | 0.0 | 0 | -7
Cc1ccc(S(=O)(=O)/N=C2/NC(=O)/C(=C/c3cccnc3)S2)cc1 | 1.6 | 23 | nt | nt | nt | -6 | -2 | -0.5 | 11 | -24

Next structures follow:
SMILES | LANA-H2B inh | Beta2AR agonist | Ecoli rRNA inh | Ecoli rRNA inh OD600 | Ecoli rRNA inh RFP | Calb FLC | Beta cell apopt | Bfl-1 A1 inh | ALR H2O2 inh | T cruzi inh
CN(C)S(=O)(=O)n1cc(/C=C(\NC(=O)c2ccccc2Cl)C(=O)N2CCOCC2)c2ccccc21 | 0.8 | -3 | 16 | 8 | -0.1 | 34 | 0 | 0.4 | -1 | -14
CCOc1cc(/C=C2\C(=O)ON=C2c2ccccc2)ccc1OC | -0.6 | 12 | 6 | 11 | -1.5 | 10 | -10 | 0.5 | 92* | -11
Cc1ccc(F)cc1NS(=O)(=O)c1ccc(Cl)s1 | -7.0 | -3 | nt | nt | nt | nt | 5 | -0.8 | nt | nt
CC1(NC(=O)CC[N+](C)(C)CCO)CS(=O)(=O)CC1S(=O)(=O)[O-] (centres undefined) | -0.2 | nt | nt | nt | nt | -3 | -6 | 0.3 | -4 | -3
COc1ccc(OC(=O)C(C)N2C(=O)c3ccccc3C2=O)cc1 (centres undefined) | -2.7 | 5 | -12 | -10 | -0.3 | -11 | nt | 1.1 | 15 | 6
C=CCNC(=O)C1CCN(c2c([N+](=O)[O-])cc(C(F)(F)F)cc2[N+](=O)[O-])CC1 | -6.0 | -2 | nt | nt | nt | -2 | 0 | 0.5 | -2 | -19
COc1cc(C2N(c3ccccc3)CCN2c2ccccc2)cc(OC)c1OC | -1.5 | 5 | nt | nt | nt | -3 | -3 | -0.1 | 99* | 14
CCC1SC(CC)C(=O)N(CC(=O)NCCc2ccccc2)C1=O (centres undefined) | -1.1 | -1 | 12 | 5 | 2.2 | 5 | -6 | 1.1 | 0 | -25
CCn1cc(CNC(=O)CCSc2nc(-c3ccco3)cc(C(F)(F)F)n2)cn1 | -1.1 | nt | nt | nt | nt | -2 | -2 | -0.1 | nt | 2
CCCCn1c(N)c(N(CC(C)C)C(=O)COC(=O)c2ccccc2NCCO)c(=O)[nH]c1=O | -6.3 | 5 | 8 | 12 | 1.6 | 8 | 2 | -0.2 | -1 | -1
N#C/C(=C\c1cccc([N+](=O)[O-])c1)c1ccccn1 | 1.2 | -17 | 5 | 7 | -1.3 | -2 | -4 | 1.0 | 7 | 16
CCN1CCN(C(=O)c2cc(-c3ccc(Cl)s3)nc3ccccc23)CC1 | nt | 6 | -22 | -26 | -5.1 | 5 | nt | nt | nt | 41
COC(=O)C1=C(C)NC2=C(C(=O)c3ccccc32)C1c1cccc(OC)c1 (centres undefined) | -8.4 | -17 | nt | nt | nt | -4 | -3 | 0.0 | 2 | 12
Cc1ccc2nc(C)c(C(=O)N/N=C/c3ccco3)cc2c1 | 1.1 | -6 | nt | nt | nt | -2 | -1 | 0.5 | 1 | -6
CC(=O)NC12CC3CC(C1)CC(C(=O)OCC(=O)Nc1c(F)cccc1F)(C3)C2 | -3.5 | 3 | 2 | 1 | 2.3 | nt | -3 | 0.7 | 0 | nt
CC(=O)Nc1c(F)c(F)c(F)c(F)c1F | 2.4 | 3 | 5 | 4 | 2.0 | -2 | -3 | 0.1 | 0 | -29
COc1ccc(NC(C)=O)cc1NC(=O)C1CCN(C(=O)Nc2ccccc2)CC1 | -6.0 | 2 | 7 | 10 | 0.9 | -2 | nt | 1.2 | -9 | 1
O=C(NCc1ccccn1)c1c(Cl)cccc1Cl | -3.5 | -9 | nt | nt | nt | 9 | -2 | 1.0 | -5 | -19
CCOc1ncnc2c1oc1nc(CC(C)C)c3c(c12)CC(C)(C)OC3 | 3.0 | -18 | 27 | 15 | -7.6 | 7 | 5 | 0.0 | -6 | 18
COc1ccc(NC2CCCN(C(=O)CCc3ccccc3F)C2)cc1 (centres undefined) | 2.6 | 0 | -1 | -3 | 1.1 | 4 | -1 | -0.4 | 100* | -4
Nc1nonc1-n1nnc(C(=O)N/N=C/c2ccc(Cl)cc2Cl)c1CN1CCOCC1 | -1.9 | -13 | 2 | 4 | -0.3 | -1 | -5 | -0.4 | nt | -13
O=C(O)CCNS(=O)(=O)c1cccc(Br)c1 | -1.0 | 1 | 5 | 3 | -4.4 | 7 | -3 | 0.6 | -11 | -12
O=C1c2ccccc2-c2cccc(C(=O)N3CCCCCC3)c21 | -5.4 | -1 | nt | nt | nt | 33 | -2 | 0.6 | -1 | -20

Source: PubChem BioAssay
